Screening results as filed in PubChem BioAssay.
PD-1 reversal: activators reversing PD-1 mediated T-cell inhibition. primary human CD4 T cells, PD-L1 beads, CellTiter-Glo 96 h. 29,000 tested, under 10 active. activation, % (test concentration not listed);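 active = replicate mean of 50% or more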;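 also: 0% = median vehicle wells and 100% = positive control; 100 nL library stock added to about 50 µL; numbers are from one replicate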
Hedgehog inh: Sonic Hedgehog pathway inhibition | hit rate 2.1% among 22,000 | Shh-LIGHT2 Gli-luciferase reporter, 30 h | AID 2313 | inhibition, % (test concentration not listed);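 active = replicate mean of 65% or more; inconclusive = mean lower but half the replicates past it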;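 also: pathway switched on by Shh-conditioned medium diluted 1 in 25 in low serum; 100 nL library stock added to about 40 µL; 0% = median of neutral wells and 100% = positive control level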
MITF inh: blocks MITF activity; hit rate 0.28% among 37,000; inhibition, % (concentration not given with the values); TRPM1 promoter luciferase, luminescence, 24 h;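 active = most replicates at 85% or more, or half of them and the mean; inconclusive = half reach 85% but not the mean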;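 also: human melanocyte line stably carrying TRPM1 promoter luciferase reporter; 0% = vehicle wells and 100% = a positive control; the first replicate is given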
YB-1 expr inh: YB-1 expression inhibition. AID 434959. U2OS, qRT-PCR YB-1 vs CDIP delta delta Cp, 16 h; hits give high values; zero = DMSO, each unit about twofold. delta delta Cp (YB-1 minus CDIP) (test concentration not listed). hit rate 0.37% among 30,000;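 active = delta delta Cp rounded down to an integer at or above 3, about 3 SD of DMSO wells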;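 also: higher means less YB-1 transcript or more CDIP transcript relative to DMSO; stock transfer was 100 nL into about 100 µL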
* hit, by the source's call; ? = inconclusive; / = no result given. Not all compounds are listed (hit frequency here may not be typical).

mol	YB-1 expr inh	Hedgehog inh	MITF inh	PD-1 reversal
COc1ccc(S(=O)(=O)Nc2ccc3c(c2)C(=O)N([C@@H](C)CO)C[C@@H](C)[C@@H](CN(C)C)O3)cc1	0.0998	/	-7.2	/
COc1ccc(S(=O)(=O)Nc2ccc3c(c2)CC(=O)N([C@H](C)CO)C[C@@H](C)[C@H](CN(C)S(=O)(=O)c2ccc(OC)cc2)O3)cc1	-0.189	-2.6	3.3	/
C[C@@H]1CN([C@@H](C)CO)C(=O)Cc2cc(NC(=O)Nc3ccccc3)ccc2O[C@@H]1CN(C)Cc1ccncc1	0.0961	1.1	-3.3	/
COc1ccc(Cc2nnc(SCC(=O)Nc3ccc(OC)cc3)o2)cc1	-0.362	-22.2	-5.6	-0.6
CN(C)S(=O)(=O)N(CC(=O)Nc1c(F)cccc1F)c1ccccc1	/	/	-5.7	0.5
C[C@@H]1CCCCO[C@@H](CN(C)S(=O)(=O)c2cccs2)[C@@H](C)CN([C@H](C)CO)C(=O)c2cc(NS(=O)(=O)c3ccccc3)ccc2O1	0.247	?	20.0	-5.5
COC(=O)CN1C(=O)CN(c2nc(C)cc(C)n2)C1=O	/	/	-6.7	1.0
Cc1cc(C(=O)Nc2cccc3c2O[C@@H](CN(C)Cc2ccncc2)[C@@H](C)CN([C@@H](C)CO)C3=O)n(C)n1	-0.553	-8.5	-2.0	/
CC1(C)CC[C@]2(C(=O)O)CC[C@]3(C)C(=CCC4[C@@]5(C)CC[C@H](O[C@@H]6O[C@H](CO)[C@@H](O)[C@H](O)[C@H]6O)C(C)(C)C5CC[C@]43C)[C@@H]2C1 (some centres undefined)	-0.527	89.1*	45.2	-10.0
O=C(O)c1ccc(CSc2nnc(-c3cccnc3)n2-c2ccc(Br)cc2)cc1	/	/	-11.5	2.6
C[C@@H]1CN([C@@H](C)CO)C(=O)c2cc(NC(=O)C3CC3)ccc2O[C@H]1CN(C)Cc1ccc(C(=O)O)cc1	0.275	-18.8	-0.9	0.6
C[C@@H]1CN([C@@H](C)CO)C(=O)c2cc(NC(=O)Cc3cn(C)c4ccccc34)ccc2O[C@@H]1CN(C)Cc1ccccc1	-0.449	?	16.7	-3.8
O=C(Nc1cccc2cccnc12)c1ccccc1S(=O)(=O)c1ccc([N+](=O)[O-])cc1	/	/	12.3	2.6
CC(C)NC(=O)N(C)C[C@H]1Oc2c(NC(=O)c3ccc(-c4nccs4)cc3)cccc2C(=O)N([C@H](C)CO)C[C@H]1C	-0.147	29.7	-13.9	1.4
Cc1ccc(C)c(OCC(=O)Nc2c[nH]c(=O)[nH]c2=O)c1	/	/	23.7	0.1
COc1ccc(S(=O)(=O)N(C)C[C@H]2Oc3ccc(NS(=O)(=O)c4cn(C)cn4)cc3C(=O)N([C@H](C)CO)C[C@H]2C)cc1	-0.195	-48.4	4.8	1.0
COc1ccc(S(=O)(=O)N(C)C[C@@H]2Oc3ccc(NS(C)(=O)=O)cc3CC(=O)N([C@H](C)CO)C[C@H]2C)cc1	0.0746	-12.8	4.2	/
COc1ccc(S(=O)(=O)Nc2ccc3c(c2)C(=O)N([C@H](C)CO)C[C@H](C)[C@@H](CN(C)Cc2ccc(C(=O)O)cc2)OCCCC[C@@H](C)O3)cc1	-0.0811	/	-23.9	/
CN(CC(=O)Nc1ccccc1-c1ccccc1)S(=O)(=O)c1ccc2ccccc2c1	/	/	4.0	2.1
O=C(CCn1cnc2ccccc2c1=O)Nc1cccc(C(=O)c2ccccc2)c1	/	/	-18.8	0.8
C[C@H]1CN([C@@H](C)CO)C(=O)Cc2cc(NC(=O)CCC(F)(F)F)ccc2O[C@H]1CN(C)C(=O)Nc1cccc2ccccc12	-0.723	-11.5	1.7	-0.8
CC(C)NC(=O)N(C)C[C@H]1Oc2ccc(NC(=O)Cn3cnnn3)cc2CC(=O)N([C@@H](C)CO)C[C@H]1C	-0.344	-11.0	-0.6	/
COc1ccc(CN(C)C[C@@H]2Oc3c(NC(=O)c4cc(C)nn4C)cccc3C(=O)N([C@H](C)CO)C[C@@H]2C)cc1	-0.434	-34.9	-4.1	0.0
Cc1ccc2oc(-c3ccc(NC(=O)Cn4c(=O)oc5ccccc54)cc3)nc2c1	/	/	-41.7	0.8
C[C@H]1CN([C@@H](C)CO)C(=O)c2cccc(NC(=O)c3cnccn3)c2O[C@H]1CN(C)C(=O)Nc1cccc2ccccc12	0.263	-0.5	-8.2	0.5

The closing 2 entries of the section before come first, to join the parts.
mol	YB-1 expr inh	Hedgehog inh	MITF inh	PD-1 reversal
Cc1ccc2oc(-c3ccc(NC(=O)Cn4c(=O)oc5ccccc54)cc3)nc2c1	/	/	-41.7	0.8
C[C@H]1CN([C@@H](C)CO)C(=O)c2cccc(NC(=O)c3cnccn3)c2O[C@H]1CN(C)C(=O)Nc1cccc2ccccc12	0.263	-0.5	-8.2	0.5
CC1(C)C=CC(=O)[C@@]2(C)C1CC(=O)[C@]1(C)C2CC[C@@]2(C)[C@H](c3ccoc3)OC(=O)C3OC321 (some centres undefined)	-11	23.4	22.1	/
COC(=O)c1cc(O)c(C(=O)c2c(O)cccc2C(=O)O)c(O)c1	-0.0289	-31.6	8.9	-0.2
CCC(C)C1NC(=O)C(CC(C)C)NC(=O)C(CC(=O)O)NC(=O)C(C(C)C)NC(=O)C(CC(C)C)NC(=O)C(CC(C)C)NC(=O)C(CCC(N)=O)NC(=O)CC(CCCCCCCCCC(C)C)OC1=O (centres undefined)	1.54	76.8*	/	/
Cc1ccc(C(C)C)c(OC(=O)CS(=O)c2ccc(C(F)(F)F)cc2[N+](=O)[O-])c1 (centres undefined)	/	/	20.7	-12.2
C[C@@H]1CN([C@@H](C)CO)C(=O)c2cc(NC(=O)CCN3CCOCC3)ccc2O[C@H]1CN(C)Cc1ccc(-c2ccccc2)cc1	0.395	-0.3	5.8	/
C[C@@H]1CN([C@@H](C)CO)C(=O)c2cc(NC(=O)CCCCCC(=O)Nc3ccccc3N)ccc2O[C@@H]1CN(C)S(=O)(=O)c1cccs1	0.117	/	0.5	3.9
C[C@@H]1CN([C@@H](C)CO)C(=O)Cc2cc(NC(=O)CCC(F)(F)F)ccc2O[C@@H]1CN(C)Cc1ccc2c(c1)OCO2	0.153	-26.4	-8.3	/
COc1ccc(CN(C)C[C@H]2Oc3ccc(NS(=O)(=O)c4cn(C)cn4)cc3CC(=O)N([C@@H](C)CO)C[C@H]2C)cc1	-0.418	-4.7	1.3	/
C[C@H]1CN([C@@H](C)CO)C(=O)c2cccc(NC(=O)c3cnccn3)c2O[C@@H]1CN(C)Cc1ccc(C(=O)O)cc1	-0.613	-45.7	-4.8	0.9
Cc1ccccc1OCC(=O)NC(=S)Nc1ccccc1N1CCN(S(C)(=O)=O)CC1	/	/	-3.5	1.2
C[C@@H]1CN([C@H](C)CO)C(=O)c2cc(NC(=O)Nc3ccc4c(c3)OCO4)ccc2O[C@@H]1CN(C)S(=O)(=O)c1ccccc1	-0.0177	/	4.3	-1.3
C[C@@H]1CN([C@H](C)CO)C(=O)c2cc(NC(=O)C3CC3)ccc2O[C@@H]1CN(C)Cc1ccc2c(c1)OCO2	0.426	12.4	1.4	0.8
C[C@H](CO)N1C[C@H](C)[C@@H](CN(C)S(=O)(=O)c2ccccc2)Oc2c(NC(=O)C3CCCCC3)cccc2C1=O	0.172	-18.6	-7.8	-0.4
COc1ccc(NC(=O)Nc2ccc3c(c2)CC(=O)N([C@@H](C)CO)C[C@@H](C)[C@@H](CN(C)S(=O)(=O)c2ccc(Cl)cc2)O3)cc1	-0.117	0.9	15.8	-0.7
Cc1noc(C)c1NC(=O)Nc1ccc2c(c1)C(=O)N([C@H](C)CO)C[C@H](C)[C@H](CN(C)C(=O)Nc1ccccc1)OCCCC[C@@H](C)O2	-0.136	/	-0.9	0.6
NS(=O)(=O)c1cc(C2(O)NC(=O)c3ccccc32)ccc1Cl (centres undefined)	0.257	-8.1	-7.8	/
Cc1nccn1CC(O)COc1ccccc1Br (centres undefined)	/	/	1.4	1.7
CC(=O)O[C@@H]1C[C@@H](C)[C@](O)(CCc2ccoc2)[C@]23CCC[C@](C)(C(=O)OC2)C13 (some centres undefined)	-0.384	-5.1	2.1	1.3
C[C@@H]1CCCCO[C@@H](CN(C)S(=O)(=O)c2ccc(F)cc2)[C@@H](C)CN([C@H](C)CO)C(=O)c2cc(NC(=O)c3ccccc3)ccc2O1	-0.222	-17.5	14.5	-4.1
C[C@@H]1CN([C@@H](C)CO)C(=O)c2cc(N(C)C)ccc2O[C@@H]1CN(C)Cc1ccncc1	-0.35	/	-18.9	4.2
C[C@]12CCC3c4ccc(OS(=O)(=O)O)cc4CCC3C1CCC2=O (some centres undefined)	0.041	-23.8	0.0	/
Cc1ccc(S(=O)(=O)Nc2cccc3c2O[C@@H](CN(C)S(=O)(=O)c2c(C)noc2C)[C@@H](C)CN([C@H](C)CO)C3=O)cc1	-0.382	-7.4	0.8	0.2
C[C@H](CO)N1C[C@H](C)[C@H](CN(C)C)Oc2c(NS(=O)(=O)c3ccc(Cl)cc3)cccc2C1=O	0.331	-16.5	-9.1	/
COc1ccc(S(=O)(=O)Nc2cccc3c2O[C@@H](CN(C)Cc2ccc(Cl)c(Cl)c2)[C@H](C)CN([C@H](C)CO)C3=O)cc1	0.348	-18.3	-16.5	0.8
CC(=O)c1cccc(NC(=O)COc2ccccc2C(=O)Nc2ccc3c(c2)oc2ccccc23)c1	/	/	-36.8	-2.6
CNC[C@@H]1Oc2ccc(NS(=O)(=O)c3ccccc3)cc2CC(=O)N([C@H](C)CO)C[C@@H]1C	0.3	2.3	-2.7	3.4
Cc1cc(C)c(C)c(S(=O)(=O)NCc2ccc(C(=O)Nc3ccncc3)cc2)c1C	/	/	50.3	-9.5
COc1ccc(NC(=O)COc2ccccc2[N+](=O)[O-])cc1Cl	/	/	-56.2	1.9
O=C(OCCN1CCCCC1)c1c[nH]c2ccccc12	-0.624	18.2	-2.7	2.8
C[C@H](CO)N1C[C@H](C)[C@H](CN(C)Cc2ccc(C(=O)Nc3ccccc3N)cc2)Oc2ccc(NC(=O)C3CC3)cc2C1=O	-0.0904	/	-13.5	-1.8
COc1cc([C@H]2OC[C@H]3[C@@H]2CO[C@H]3c2ccc(OC)c(OC)c2)ccc1O	-0.0375	-19.2	-14.0	0.0
C[C@H]1CN([C@@H](C)CO)C(=O)c2cc(NC(=O)C3CCCCC3)ccc2O[C@@H]1CN(C)S(=O)(=O)c1cn(C)cn1	0.497	-16.1	-5.8	-1.1
C[C@H](CO)N1C[C@H](C)[C@H](CN(C)Cc2ccc(C(=O)O)cc2)Oc2ccc(NS(=O)(=O)c3ccccc3)cc2C1=O	0.0748	-27.1	-18.8	-1.3
C[C@H](CO)N1C[C@H](C)[C@@H](CN(C)Cc2ccc(Oc3ccccc3)cc2)Oc2c(cccc2N(C)C)C1=O	0.0206	1.6	1.3	-2.3
Cc1noc(C)c1S(=O)(=O)Nc1cccc2c1O[C@H](CN(C)CC1CC1)[C@H](C)CN([C@@H](C)CO)C2=O	-0.147	-20.4	-1.7	1.0
CCOc1ccccc1OCC(=O)Nc1sc2c(c1C#N)CCC(C)C2 (centres undefined)	/	/	-14.6	-4.2
COc1ccc(S(=O)(=O)N(C)C[C@H]2Oc3ccc(NC(=O)NC(C)C)cc3CC(=O)N([C@@H](C)CO)C[C@H]2C)cc1	-0.38	/	-2.0	-0.7
COc1ccc(NC(=O)Nc2ccc3c(c2)CC(=O)N([C@@H](C)CO)C[C@@H](C)[C@@H](CN(C)Cc2ccc(C(F)(F)F)cc2)O3)cc1	0.0879	13.9	40.7	-8.3
Cc1cc(Br)ccc1NCc1ccc2c(c1)OCO2	-0.997	-35.2	-68.0	0.3
CO[C@@H]1C=C[C@@]23c4cc5c(cc4CN(CC2O)[C@H]3C1)OCO5 (some centres undefined)	0.395	88.4*	49.1	-1.3
COc1ccc(NC(=O)N(C)C[C@@H]2Oc3ccc(NS(=O)(=O)c4ccc(OC)cc4)cc3CC(=O)N([C@H](C)CO)C[C@H]2C)cc1	-0.353	/	5.5	/
COc1ccc(S(=O)(=O)Nc2ccc3c(c2)C(=O)N([C@@H](C)CO)C[C@H](C)[C@H](CN(C)Cc2ccc(Cl)c(Cl)c2)O3)cc1	-0.0617	19.7	8.2	-0.1
C[C@@H]1CN([C@@H](C)CO)C(=O)c2cccc(NC(=O)C3CC3)c2O[C@@H]1CN(C)C(=O)Nc1ccc2c(c1)OCO2	3.7*	23.0	-12.8	2.7
CNC[C@H]1Oc2ccc(NS(C)(=O)=O)cc2CC(=O)N([C@@H](C)CO)C[C@@H]1C	-0.056	2.2	-1.6	1.3
C[C@@H]1CN([C@H](C)CO)C(=O)c2cc(NC(=O)Nc3ccc(C(F)(F)F)cc3)ccc2O[C@H]1CN(C)Cc1ccc(C(=O)O)cc1	-0.285	/	7.7	0.3
